Sa growth inh: S. aureus growth inhibition | S. aureus RN4220 growth, OD600, 20 h, 42 °C; hits give low values | relative growth, % (concentration not given with the values) | 0.53% of 170,000 active | AID 720641;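 active means growth at 42 °C up to 50% and 20 or more points under that at 30 °C, or under 10% at both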;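 further: 300 nL library stock went into each well; scaled to the means of positive and negative controls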
HCMV UL50-53 inh: inhibitors of HCMV UL50-UL53 nuclear egress complex interaction | AID 1918969 | 0.15% of 190,000 active | inhibition, % (test concentration not listed) | HTRF UL50-UL53 interaction, normalized percent inhibition;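 active means both replicates at 50% or more, plus weaker picks with an unusually low signal ratio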;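 further: stock transfer was 100 nL into about 20 µL; 0% = negative control wells and 100% = wells with untagged competitor protein; inactives centre near -12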
GIV-Gai inh: blocks GIV peptide binding to rat Galpha-i3; P08753; Galpha-i3/FITC-GIV peptide fluorescence polarization, 90 min; hits give low values; scaled: aluminum fluoride 0%, vehicle 100%; percent of control (FP), % (concentration not given with the values); 0.42% of 210,000 active; AID 1224905;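 active means replicate mean at 85% of control or lower, very high polarization wells dropped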;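 further: wells of about 15 µL received 100 nL stock; the first replicate is given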
Target sequence (P08753 whole entry, looked up): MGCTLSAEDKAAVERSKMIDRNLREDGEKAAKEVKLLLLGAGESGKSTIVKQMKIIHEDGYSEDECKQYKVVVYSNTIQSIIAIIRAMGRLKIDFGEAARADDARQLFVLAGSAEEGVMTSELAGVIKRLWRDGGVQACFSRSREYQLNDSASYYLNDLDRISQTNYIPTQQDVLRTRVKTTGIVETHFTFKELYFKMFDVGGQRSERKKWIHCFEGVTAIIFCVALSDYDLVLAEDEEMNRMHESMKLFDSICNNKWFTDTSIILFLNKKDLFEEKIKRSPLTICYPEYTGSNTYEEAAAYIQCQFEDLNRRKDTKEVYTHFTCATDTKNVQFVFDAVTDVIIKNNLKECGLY
Sa growth inh second temp: second read-out of Sa growth inh, no call of its own (marks repeat the call); relative growth, %; measured here: growth at 30 °C;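 optical density after 20 h as mean of two plates; 100% = untreated growth and lower means inhibition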
Starred values were filed as active, the others as inactive; / = not tested or not shown; & = joins results of further samples.

compound	Sa growth inh	Sa growth inh second temp	HCMV UL50-53 inh	GIV-Gai inh
COc1ccc(CNC(=O)C2CCC(CNS(=O)(=O)c3ccc4c(c3)CCCC(=O)N4)CC2)cc1 (stereo unspecified)	76	89	/	99
C(=N\N=C(c1ccccc1)C12CN3CN(CN(C3)C1)C2)/c1ccccc1	103	116	6	105
Cc1ccc(OCC(=O)NC2CCC(C)CC2)cc1C (stereo unspecified)	94	90	-1	/
CCN=C1SC(CC(=O)Nc2ccccc2)C(=O)N1CC (stereo unspecified)	104	84	3	103
COc1ccc(C2=NN(c3nc(C)cs3)C(c3ccc(OC)c(OC)c3)C2)cc1 (stereo unspecified)	/	/	-31	102
CC(=O)OC(C(=O)N1CCN(c2ccccc2F)CC1)c1ccccc1 (stereo unspecified)	100	91	-13	102
O=C(c1ccc(Cl)cc1)N1CCN(c2cc(=O)n3nc(-c4ccccc4)sc3n2)CC1	/	/	-3	105
CSc1nnc(-c2ccc(C(F)(F)F)nc2C)o1	77	86	-9	104
CCCCc1ccc(NS(=O)(=O)c2ccc(N3CCCCS3(=O)=O)cc2)cc1	116	72	-1	101&108
O=C(Cn1c(=O)nc(-c2ccccc2)c2cc(Cl)ccc21)NCc1ccccc1	75	94	/	103
O=c1nc(-c2ccccc2)cn[nH]1	110	93	-131	109
Oc1ccc2oc3c(c2c1)CCCC3	91	72	-33	105

compound	Sa growth inh	Sa growth inh second temp	HCMV UL50-53 inh	GIV-Gai inh
CC1CCN(C(=O)Oc2ccccc2)CC1	101	100	19	104
CCCCS(=O)(=O)N1CCOCC1	98	99	-10	102
CCOC(=O)c1cc(C#N)c(Nc2ccccc2)nc1C(F)(F)F	106	92	-4	100
CC(C)(C)NCc1ccc(-c2ccccc2F)o1	/	/	0	104
O=C(c1cc2nc(C3CC3)cc(C(F)F)n2n1)N1CCCC1c1cccc(F)c1 (stereo unspecified)	/	/	-31	113
Cc1ccccc1Oc1ccc(-c2nc(N)nc(N)n2)cc1	83	95	-52	101
CC1CCCCC12NC(=S)N(c1ccc(Cl)cc1)N2 (stereo unspecified)	99	100	8	107
CCc1ccc(-c2cc(C(=O)OC)c3ccccc3n2)cc1	71	76	-17	/
Cn1nnnc1CN1CCOCC1	105	88	-12	106
Cc1c2cnn(-c3ccccc3)c(=O)c2c(C)n1CCCC(=O)N1CCOCC1	94	91	-13	108
CCCNS(=O)(=O)c1ccc(-c2ccc(=O)[nH]n2)o1	92	93	-73	105
Cc1cc(Cl)ccc1OCC(=O)Nc1c(C(=O)c2ccccc2)oc2ccccc12	97	86	-7	108

compound	Sa growth inh	Sa growth inh second temp	HCMV UL50-53 inh	GIV-Gai inh
CCOC(=O)C1=C(C)NC(=O)NC1c1ccc(OCC(=O)N/N=C/c2ccc(N(C)C)cc2)c(OC)c1 (stereo unspecified)	95	83	-59	106
O=C(CCN1C(=O)S/C(=C\c2ccc(Cl)cc2)C1=O)Nc1ccc(S(=O)(=O)Nc2nccs2)cc1	/	/	1	103
Cc1cccc(NC(=O)C2CCCN(S(=O)(=O)c3ccc4c(c3)oc(=O)n4C)C2)c1 (stereo unspecified)	93	89	/	93
O=C(COc1ccc(-c2nc(-c3ccccc3)no2)cc1)Nc1ccccc1F	/	/	-20	106
c1ccc2c(c1)CCN(Cn1cnc3ccccc31)C2	99	89	/	99
CCOC(=O)c1c(C)oc2c(Br)cc(NS(=O)(=O)c3ccc(OCC)cc3)cc12	/	/	-19	110
COc1ccccc1C(=O)Nc1ccc2[nH]c(=O)oc2c1	/	/	-4	109
COC(=O)COc1ccc(S(=O)(=O)N2CCCCC2)cc1C	112	76	0	102
Cn1cc(C(=O)c2cccc(Cl)c2Cl)cc1C(N)=O	/	/	-12	103
O=C(Nc1ccc2c(c1)OCCO2)N1CCN(Cc2nc3cc(Cl)ccc3o2)CC1	/	/	-12	107
O=C(O)CCC(=O)Nc1ccc(C(=O)N2CCCCC2)cc1	110	86	-5	/
O=C1NC(=O)N(c2ccc(Br)cc2)C(=O)/C1=C/c1ccc(N2CCCC2)o1	/	/	-10	163

4 entries from above, with values under each structure.
Results follow in this order: Sa growth inh, Sa growth inh second temp, HCMV UL50-53 inh, GIV-Gai inh
CCOC(=O)C1=C(C)NC(=O)NC1c1ccc(OCC(=O)N/N=C/c2ccc(N(C)C)cc2)c(OC)c1 (stereo unspecified)
    95, 83, -59, 106
O=C(CCN1C(=O)S/C(=C\c2ccc(Cl)cc2)C1=O)Nc1ccc(S(=O)(=O)Nc2nccs2)cc1
    /, /, 1, 103
Cc1cccc(NC(=O)C2CCCN(S(=O)(=O)c3ccc4c(c3)oc(=O)n4C)C2)c1 (stereo unspecified)
    93, 89, /, 93
O=C(COc1ccc(-c2nc(-c3ccccc3)no2)cc1)Nc1ccccc1F
    /, /, -20, 106

Other results follow.
compound	Sa growth inh	Sa growth inh second temp	HCMV UL50-53 inh	GIV-Gai inh
COc1ccc(S(=O)(=O)c2cc3cc(OC)ccc3oc2=O)cc1	105	88	-28	96
COc1cccc(NC(=O)CN(C)CC(=O)Nc2cccc(C#N)c2)c1	86	74	-34	/
Cc1nnc(SCC(=O)c2ccc3c(c2)NC(=O)CO3)n(N)c1=O	100	87	-71	/
N#Cc1ccc(CSc2nc3ccccc3s2)cc1	99	89	/	105
O=C(c1ccc(Nc2nc3ccccc3n3nnnc23)cc1)N1CCN(c2ccc(F)cc2)CC1	104	84	-5	107
CCCCNC(=O)c1cc(C)nc2c1c(=O)n(C)c(=O)n2C	/	/	-21	101
OC(OCC1Cc2ccccc2O1)C1Cc2ccccc2O1 (stereo unspecified)	111	87	4	/
O=C(O)CC1(CC(=O)N2CCN(c3nc(-c4ccccc4)c4ccccc4n3)CC2)CCCC1	/	/	-43	103
Cn1c(CN(c2ccc(F)cc2)S(C)(=O)=O)nnc1SCC(=O)Nc1ccc2c(c1)OCO2	/	/	-15	101
O=C(CSCc1ccco1)c1cc2ccccc2o1	92	80	-63	/
CS(=O)(=O)Nc1csc2cc(C(F)(F)F)cc(Cl)c12	101	73	-6	104
CCC(=O)N1CCc2cc(S(=O)(=O)NC(C(=O)NCCc3cccc(C)c3)C(C)C)ccc21 (stereo unspecified)	107	91	-8	105

Compound	Sa growth inh	Sa growth inh second temp	HCMV UL50-53 inh	GIV-Gai inh
Cc1c(C(=O)NCc2ccc(OC(C)C)cc2)oc2ccc3c(c12)C=CC(C)(C)O3	107	98	/	112
CCn1c2ccccc2c2cc(CN3CCCC3)ccc21	84	97	10	107
COc1ccc(NC(=O)c2ccco2)cc1NC(=O)COc1ccccc1	98	86	-24	105
CC1CN(C(=O)c2cc3ccccc3oc2=O)CC(C)O1 (stereo unspecified)	105	95	-18	/
COc1ccc(Cn2ccnc2SCC(=O)NC2CCCC2)cc1	92	92	/	101
Cc1ccc(S(=O)(=O)NC(C)(C)CN2CCCCC2)cc1	103	86	15	103
COc1ccc(CCNS(=O)(=O)c2ccc(C3CNC(=O)C3)cc2)cc1OC (stereo unspecified)	108	99	-10	105
CCc1ccccc1NC(=O)CN1CCN(C(=O)/C=C/c2cc(Cl)c3c(c2)OCCO3)CC1	105	88	-27	/
CCCOc1cccc(N)c1	55	96	16	102
O=C(COc1ccc(Cl)cc1)Nc1cccc(Cl)c1	90	79	-6	/
COCCCNC(=O)C1CCN(C(=O)c2ccc(-n3ccc4ccccc43)s2)CC1	129	83	/	107
Brc1ccc(-n2c(-c3ccco3)nc3nc4ccccc4nc32)cc1	98	96	-18	/
CN1/C(=N\O)c2cccc3cccc1c23	107	88	-45	94
CCn1ccc2cc(S(=O)(=O)N3CCC(C(=O)N4CCN(c5ccccc5)CC4)CC3)ccc21	/	/	-26	105
CCCN1C(=O)/C(=C/c2c(N3CCCC3)nc3ccccn3c2=O)SC1=S	101	91	-36	-60*
Cc1ccc(Cl)cc1NC(=O)c1sc2nc(-c3ccccc3)cn2c1C	110	88	/	101
CCN(Cc1nc(-c2ccc(OC)cc2)no1)S(=O)(=O)c1c(C)cc(C)cc1C	87	89	-15	118
Nc1nc(NCc2ccccc2OC(F)(F)F)n[nH]1	109	70	0	104
Cc1ccc(NC(=O)Nc2csc3c2CCCC3)c(C)c1	99	100	-1	97
Clc1nsc2ccccc12	89	50	-10	/
O=C(NCCN1CCOCC1)c1sc2ccccc2c1Cl	93	87	-47	99
CC(C)OCCCNC(=O)C(=O)Nc1c2c(nn1-c1ccccc1)CS(=O)(=O)C2	120	93	/	104
COc1cc(C)c(Cl)cc1S(=O)(=O)Nc1ccc(Nc2cc(N(C)C)nc(C)n2)cc1	/	/	-6	94
Cc1c(NS(=O)(=O)c2ccc(Cl)s2)c(-n2cnnc2)nn1C	/	/	-21	99
CCOC(=O)CSc1nc(-c2ccc(Cl)cc2)cc(C(F)(F)F)c1C#N	103	88	-45	105

Compound	Sa growth inh	Sa growth inh second temp	HCMV UL50-53 inh	GIV-Gai inh
CC1CN(C(C)C)C(C)CC1OC(=O)c1ccccc1 (stereo unspecified)	98	88	-24	105
CC(=O)NCCOc1ccc(C2CCCCC2)cc1	117	87	1	/
Cn1c(=O)n(C)c2cc(NS(=O)(=O)c3ccc(Br)cc3)c(NCc3ccccc3)cc21	110	82	-11	101
CC(C)(O)CC1(CO)CCCCC1	101	88	-4	92
COC(=O)c1ccc(COC(=O)C2CCN(c3ccc(C(F)(F)F)cn3)CC2)cc1	85	87	-40	/
Nc1nnc(SCC2=CC(=O)N3C=CSC3N2)s1 (stereo unspecified)	92	82	-29	/
C=CCn1c(COc2ccc(CC)cc2)nnc1SCC(=O)N(C)C1CCS(=O)(=O)C1 (stereo unspecified)	99	96	-16	/
CN(C)CCN1C(=O)C2C3C=CC(C3)C2C1=O (stereo unspecified)	89	110	5	104
COc1ccc(-c2ccc(Nc3ccc(C(=O)N4CCCCCC4)cc3)nn2)cc1	98	98	-20	108
CC(C)Cn1c(N)c(C(=O)NCc2ccc3c(c2)OCO3)c2nc3ccccc3nc21	121	85	-20	101
COc1ccc(CNC(=O)CCS(=O)(=O)c2ccc3c(c2)CC(C)N3C(=O)C2CC2)cc1 (stereo unspecified)	124	91	-8	102&108
CC1(C)CC(=O)C(C(C2=C(O)CC(C)(C)CC2=O)C(O)CO)C(=O)C1 (stereo unspecified)	108	90	4	/
O=C(Cc1cn2ccsc2n1)NC(c1ccccc1)c1ccccc1	127	89	-27	/
COc1ccc(OC)c(N(CC(=O)Nc2ccc(-c3nc4ccc(C)cc4s3)cc2)S(C)(=O)=O)c1	/	/	-15	105
C=CCc1cc(/C=C2/SC(=O)N(CC(=O)N3CCCC3)C2=O)cc(OCC)c1O	94	91	-15	121
Cc1c(CN(C)C(=O)c2cnn3c(C(F)F)cc(-c4ccccc4)nc23)cnn1C	/	/	-34	102
O=C1NC(=Nc2ccc(Cl)cc2)SC1Cc1ccccc1 (stereo unspecified)	/	/	-15	100
CCOC(=O)c1cc(-c2ccc(S(=O)(=O)N(C)Cc3cnn(-c4ccccc4)c3)s2)on1	93	84	-37	107
COc1ccc2c(c1)c1c(c(=O)n(-c3ccc(C)cc3)c(=O)n1CC(=O)NCc1ccc(C)cc1)n2C	116	88	/	104
COc1ccccc1CNC(=O)C1CCN(C2=NS(=O)(=O)C(c3ccc(C)c(C)c3)=C2C)CC1	119	97	/	103
O=C(NC1CCCCCC1)C1CCN(C(=O)N2CCOc3ccc(Cl)cc32)CC1	107	85	3	105
CCC1=NN(C(=O)c2ccccc2)C(O)(c2ccc(Br)cc2)C1 (stereo unspecified)	/	/	-22	104
CSc1nc2ccccc2c(=O)n1C1CCCCC1	72	71	/	98
Cn1nc(C(=O)NCc2cccs2)c2c1-c1ccccc1SC2	97	87	-23	102
COCCCNC(=O)c1ccc(-c2nc(CS(=O)(=O)c3ccc(C)cc3)c(C)o2)cc1	114	89	/	106
O=S(=O)(c1cccc(Cl)c1)N1C=CC(C(F)(F)F)=NCC1	83	83	-16	94
COc1ccccc1N1CCN(c2ccc(=O)n(CC(=O)NC3CCCC3)n2)CC1	/	/	-50	107

Bioassay records (PubChem)

The order is random; overall some 0.79% were active at least once.
